# High-throughput results as filed in PubChem.
# LDHA inh – inhibitors of human lactate dehydrogenase A. purified LDHA, NADH/diaphorase-resazurin fluorescence; stronger effect = lower value. actives 0.15% (n = 480,000). P00338. activity change, % (values are at about 110 or 230 µM). AID 1347041; in the data active = activity change below about -30%; inconclusive = mostly about -25% to -30%;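 note: plate controls were DMSO wells for no effect and wells without enzyme for full effect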
#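 LDH5 2 nM; NADH 0.06 mM, pyruvate 0.2 mM; 200 mM Tris pH 7.4, EDTA, Tween-20; 5 min RT. Detection: diaphorase 0.133 mg/mL + resazurin 37 µM, fluorescence ex540/em590 at 0 and 20 min; normalized to enzyme-free and DMSO wells.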
# Apoferritin bind – candidate novel general anesthetic via apoferritin binding | P02791 | apoferritin/1-aminoanthracene competitive binding, fluorescence | Potency, µM (highest dose often 77.5 µM), inactives show at the top dose activity change, negative = displacement, usual class: inhibitors | actives 0.074% (n = 350,000); note: potency is the fitted concentration of half-maximal effect; % is set by controls: 0 for no effect and ±100 for the full control effect; nearly all actives have a fitted effect of over 20% in size
# Target sequence (P02791 2-175 limits assumed): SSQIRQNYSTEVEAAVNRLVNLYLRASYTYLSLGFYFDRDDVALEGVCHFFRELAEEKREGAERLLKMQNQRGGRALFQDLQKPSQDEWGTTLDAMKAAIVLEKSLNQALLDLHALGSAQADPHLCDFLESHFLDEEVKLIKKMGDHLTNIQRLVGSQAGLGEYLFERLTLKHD
#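 Horse-spleen apoferritin (10 uM) in 50% saturated 1-aminoanthracene in PBS was incubated 10 min at room temperature with compound. Fluorescence (ex 380, em 535 nm) was normalized to free and bound 1-AMA, with concentration-response fitted by a four-parameter Hill equation.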
# BLM helicase inh – Bloom syndrome helicase (human) inhibition; P54132; recombinant BLM DNA unwinding, fluorescence dequenching; actives 0.2% (n = 350,000); Potency, µM (highest dose often 56.1 µM), inactives show at the top dose activity change, negative = inhibition, hits mostly inhibitors;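 note: potency is the fitted concentration of half-maximal effect; plate controls were vehicle for no effect and no enzyme for full effect; nearly all actives have a fitted effect of over 35% in size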
# Glioma ERSR ind – inducers of ER stress response in human glioma cells; actives 0.02% (n = 420,000); U87-MG GRP78 promoter luciferase reporter, 16 h; AID 602332; Potency, µM, for the others: at the highest dose activation, usual class: activators; note: potency is the fitted concentration of half-maximal effect; series mostly up to about 76 µM; % of control where 0% means no effect; nearly all actives have a fitted effect of over 35% in size
#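 Stably transfected U87-MG human glioma cells carrying a GRP78-based luminescent sensor were seeded at 1000 cells/well, pin-dosed with compounds and incubated 16 h. Luciferase reagent was then added, and end-point luminescence was read after 10 min at room temperature.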
# APE1 inh – APE1 (human) endonuclease inhibition. Potency, µM (highest dose often 65.8 µM), inactives show at the top dose activity change, negative = inhibition, most hits filed as inhibitors. recombinant APE1, TAMRA/BHQ-2 abasic DNA cleavage fluorescence. AID 2517. actives 0.35% (n = 350,000). P27695;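 note: potency is the fitted concentration of half-maximal effect; plate controls were vehicle for no effect and reference inhibitor for full effect; nearly all actives have a fitted effect of over 55% in size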
# Target sequence (P27695 whole entry, looked up): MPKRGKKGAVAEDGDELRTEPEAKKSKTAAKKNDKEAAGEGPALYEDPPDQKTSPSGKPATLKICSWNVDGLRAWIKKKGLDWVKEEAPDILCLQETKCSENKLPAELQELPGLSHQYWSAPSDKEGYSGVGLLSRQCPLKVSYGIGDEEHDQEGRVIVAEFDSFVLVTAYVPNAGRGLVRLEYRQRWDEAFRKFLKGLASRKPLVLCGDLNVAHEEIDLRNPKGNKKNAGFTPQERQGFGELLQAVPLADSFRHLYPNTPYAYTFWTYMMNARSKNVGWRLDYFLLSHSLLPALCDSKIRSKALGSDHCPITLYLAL
#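 Compound pre-exposure to 0.75 nM APE1, 15 min at ambient temperature. Reaction initiated with 50 nM TAMRA/BHQ-2 THF substrate, read immediately in kinetic mode, 525 nm excitation, 598 nm emission.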
# * marks the source's active call; other numbers are inactive results; ? = inconclusive; nt = not tested or not shown; & = joins results of further samples. Unless noted, calls come from the whole dose curve; as a rule, active = well fitted curve in the direction sought with a large enough effect; inconclusive = small, poorly fitted or top-dose-only effect, or another doubt; inactive = no such curve, though single readings can be large; an effect the other way counts as inactive or inconclusive. Not all compounds are listed (hit frequency here may not be typical).
1. N#C/C(=C/C1=C(N2CCOCC2)C(=C/c2ccc(Cl)cc2Cl)/CC1)C(=O)Nc1ccccc1F
2. O=C(NC1=NCCS1)C1CCN(S(=O)(=O)c2cc([N+](=O)[O-])ccc2Cl)CC1
3. Cc1ccc(NC(=O)CCc2nc3sc4c(c3c(=O)[nH]2)CCCC4)nc1
4. O=C(CSc1ccsc1[N+](=O)[O-])N1CCN(c2ccccc2)CC1
5. Cc1ccc([N+](=O)[O-])cc1NC(=O)Cc1cccs1
6. CCN(CC)S(=O)(=O)c1ccc(OC)c(NC(=O)Cc2cccs2)c1
7. O=c1cc(COc2ccc(Cl)cc2Cl)nc2scc(-c3ccccc3)n12
8. COc1cccc(N2[C@@H](CC(=O)O)c3ccc(/C=C/C(=O)O)cc3S2(=O)=O)c1
Assay by compound | 1 | 2 | 3 | 4 | 5 | 6 | 7 | 8
LDHA inh | -8 | 11 | -8 | -1 | -17 | -1 | 7 | -4
Apoferritin bind | nt | nt | nt | -23% | -7% | -15% | 1% | nt
BLM helicase inh | nt | nt | nt | -29% | -29% | -20% | -17% | nt
Glioma ERSR ind | -3% | -1% | 0% | -3% | -5% | 1% | -1% | -2%&-2%
APE1 inh | nt | ? | -38% | ? | -3% | ? | nt | nt

# 3 compounds out of the list above, ordered by their value in BLM helicase inh, largest number first:
no.	smiles	BLM helicase inh	APE1 inh
7	O=c1cc(COc2ccc(Cl)cc2Cl)nc2scc(-c3ccccc3)n12	-17%	nt
6	CCN(CC)S(=O)(=O)c1ccc(OC)c(NC(=O)Cc2cccs2)c1	-20%	?
4	O=C(CSc1ccsc1[N+](=O)[O-])N1CCN(c2ccccc2)CC1	-29%	?

# Five entries drawn at random from those above, as already listed:
1. N#C/C(=C/C1=C(N2CCOCC2)C(=C/c2ccc(Cl)cc2Cl)/CC1)C(=O)Nc1ccccc1F
3. Cc1ccc(NC(=O)CCc2nc3sc4c(c3c(=O)[nH]2)CCCC4)nc1
4. O=C(CSc1ccsc1[N+](=O)[O-])N1CCN(c2ccccc2)CC1
7. O=c1cc(COc2ccc(Cl)cc2Cl)nc2scc(-c3ccccc3)n12
6. CCN(CC)S(=O)(=O)c1ccc(OC)c(NC(=O)Cc2cccs2)c1
Assay by compound | 1 | 3 | 4 | 7 | 6
LDHA inh | -8 | -8 | -1 | 7 | -1
Apoferritin bind | nt | nt | -23% | 1% | -15%
BLM helicase inh | nt | nt | -29% | -17% | -20%
Glioma ERSR ind | -3% | 0% | -3% | -1% | 1%
APE1 inh | nt | -38% | ? | nt | ?

# Carrying on.
9. O=C(Nc1nccs1)c1ccc2nccnc2c1
10. COc1ccc2c(CC(=O)OCC(=O)Nc3cccc(C)c3)coc2c1
11. O=C(CSc1nnc(COc2ccccc2)n1Cc1ccco1)NCc1ccco1
12. CC[C@H](C)[C@H](NC(=O)[C@H](Cc1ccc(O)cc1)NC(=O)[C@H](Cc1cnc[nH]1)NC(=O)[C@H](CCCNC(=N)N)NC(=O)[C@H](CC(C)C)NC(=O)[C@H](C)NC(=O)[C@H](CO)NC(=O)[C@H](Cc1ccc(O)cc1)NC(=O)[C@H](Cc1ccc(O)cc1)NC(=O)[C@H](CCCNC(=N)N)NC(=O)[C@H](C)NC(=O)[C@H](CC(C)C)NC(=O)[C@H](CC(=O)O)NC(=O)[C@H](CCC(=O)O)NC(=O)[C@H](C)NC(=O)[C@@H]1CCCN1C(=O)[C@H](C)NC(=O)[C@H](CC(=O)O)NC(=O)[C@H](CCC(=O)O)NC(=O)CNC(=O)[C@@H]1CCCN1C(=O)[C@H](CC(N)=O)NC(=O)[C@H](CC(=O)O)NC(=O)[C@@H]1CCCN1C(=O)[C@H](CCCCN)NC(=O)[C@H](CO)NC(=O)[C@@H]1CCCN1C(=O)[C@@H](N)Cc1ccc(O)cc1)C(=O)N[C@@H](CC(N)=O)C(=O)N[C@@H](CC(C)C)C(=O)N[C@@H](CC(C)C)C(=O)N[C@H](C(=O)N[C@@H](CCCNC(=N)N)C(=O)N1CCC[C@H]1C(=O)N[C@@H](CCCNC(=N)N)C(=O)N[C@@H](Cc1ccc(O)cc1)C(N)=O)[C@@H](C)O
13. NS(=O)(=O)c1ccc(CCNC(=O)Cc2ccc(S(=O)(=O)N3CCCC3)s2)cc1
14. CCCCC1=CC2=CC(=O)C(C)(OC(=O)CCc3ccccc3)C(=O)C2=CO1 (centres undefined)
15. COC(=O)c1ccc(C(=O)OC)c(NC(=O)Cc2cccs2)c1
16. CCOC(=O)Cc1csc(SCC(=O)Nc2sc3c(c2C(N)=O)CCC3)n1
17. O=C(O)c1ccccc1-c1ccc(/C=c2\sc3nc4cc(Br)cnc4n3c2=O)o1
18. Cc1cccc(N2CC(C(=O)Nc3nnc(SCc4cccnc4)s3)CC2=O)c1 (centres undefined)
19. C=CCn1c(SCC(=O)c2ccc(CNC(C)=O)o2)nc2scc(C3CC3)c2c1=O
Assay by compound | 9 | 10 | 11 | 12 | 13 | 14 | 15 | 16 | 17 | 18 | 19
LDHA inh | -5 | -1 | 4 | nt | 0 | 12 | 1 | -2 | 5 | -1 | 2
Apoferritin bind | -13% | nt | -13% | -14% | -13% | ? | nt | ? | -11% | ? | ?
BLM helicase inh | -4% | nt | -25% | 5% | -28% | -3%&-28% | nt | -21% | -9% | -18% | ?
Glioma ERSR ind | 2% | 2% | -2% | 0% | -5% | -3% | -4% | -1% | -5% | -3% | -4%
APE1 inh | -10% | -24% | ? | 0% | ? | 4%&-2% | nt | ? | 22µM* | -1% | -9%
